CSC inhib – cancer stem cell inhibition; 1.1% of 300,000 active; inhibition, % at 7.5 µM; cancer stem cell-like cells viability, luminescence;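 active means mean at 75% or more and at least half the replicates too; inconclusive means mean and replicates disagree; tested in HMLE shEcad cells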;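 further: 0% = median of negative and 100% = median of positive control wells; the first replicate is given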
eIF4H FP inh – inhibitors of RNA binding by human eIF4H. Q15056. eIF4H fluorescence polarization binding assay. inhibition, % at 35 µM. 0.94% of 290,000 active. AID 2012;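 active means 50% or more with normal probe brightness, or confirmed in later tests; inconclusive means above 50% with abnormal brightness, or retests that disagree; inactive means below 50% or failed in later tests; about a fifth of its hits are not listed in these tables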;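 further: calls also rest on retests at 20 µM and on dose response follow-up; 0% = protein and probe with vehicle and 100% = probe without protein; strong numbers were not always called active; many hits fall short of the cut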
UUG fidelity – alters start codon recognition fidelity in yeast | 0.13% of 350,000 active | S. cerevisiae UUG-firefly luciferase reporter, luminescence/redox ratio | activity score, % at 18.7 µM;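 active means replicate mean at a twofold rise or more, about +100% in these data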;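 further: firefly luciferase made from a UUG start codon reports start codon fidelity; reporter light over untreated wells divided by growth signal over untreated wells; some hits fall short of that in this replicate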
MT1-MMP act inh – MT1-MMP (human) activation inhibition; P50281; HT1080 RFP-PRO-GFP cells, GFP/RFP ratio fluorescence, overnight; percent of plate control window, DMSO zero; GFP/RFP ratio change, % at 20 µM; 0.061% of 360,000 active; AID 651647;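 active means GFP/RFP ratio change of at least 30% with cell ATP level not reduced by more than half and red fluorescence within 50% of control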; further: strong numbers were not always called active
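Read-out: GFP/RFP fluorescence ratio; Test system: RFP-PRO-GFP reporter HT1080 cells; Compound dosing: single-point 20 µM compound, 1% DMSO; Times: overnight compound exposure at 37 °C.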
PABP polyA inh – PABP-poly(A) binding inhibition; PABP-poly(A) RNA binding, fluorescence polarization; AID 2014; 1% of 290,000 active; inhibition, % at 35 µM; P11940;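 active means 50% or more with normal probe brightness, or confirmed in later tests; inconclusive means above 50% with abnormal brightness, or retests that disagree; inactive means below 50% or failed in later tests; about a fifth of its hits are not listed in these tables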;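 further: calls also rest on retests at 20 µM and on dose response follow-up; controls were probe without protein and protein plus probe with vehicle; some compounds called inactive have numbers as strong as hits; many hits fall short of the cut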
Target sequence (P11940 whole entry, looked up): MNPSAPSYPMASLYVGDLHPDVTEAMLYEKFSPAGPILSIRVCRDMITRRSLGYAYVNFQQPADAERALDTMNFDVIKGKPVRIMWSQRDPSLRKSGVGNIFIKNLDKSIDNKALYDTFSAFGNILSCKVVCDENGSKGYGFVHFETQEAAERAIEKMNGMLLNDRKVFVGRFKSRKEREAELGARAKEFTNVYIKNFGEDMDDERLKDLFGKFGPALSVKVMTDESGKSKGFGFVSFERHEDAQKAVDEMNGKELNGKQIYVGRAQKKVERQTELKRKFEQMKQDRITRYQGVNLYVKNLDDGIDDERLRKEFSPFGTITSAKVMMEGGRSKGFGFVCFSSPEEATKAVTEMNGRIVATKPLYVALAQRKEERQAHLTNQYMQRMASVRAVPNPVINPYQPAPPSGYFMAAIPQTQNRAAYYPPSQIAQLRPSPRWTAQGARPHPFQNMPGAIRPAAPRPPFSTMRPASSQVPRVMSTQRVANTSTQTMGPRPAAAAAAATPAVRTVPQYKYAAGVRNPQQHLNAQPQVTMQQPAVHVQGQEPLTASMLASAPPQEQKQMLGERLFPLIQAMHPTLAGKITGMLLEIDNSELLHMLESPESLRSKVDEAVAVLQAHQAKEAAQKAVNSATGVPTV
Rce1 inh – blocks yeast Ras-converting enzyme; Q03530; AID 2563; yeast membranes, quenched prenylated peptide cleavage fluorescence; 0.27% of 290,000 active; calls only;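 active means fall in fluorescence gain of 50% or more versus controls, with final raw signal at or below 3038400; inconclusive means same 50% fall but final raw signal above 3038400; inactive means fall in fluorescence gain under 50%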;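 further: plate controls were neutral control wells for no effect and wells lacking membranes for full effect; tested at 10 µM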
Target sequence (Q03530 whole entry, looked up): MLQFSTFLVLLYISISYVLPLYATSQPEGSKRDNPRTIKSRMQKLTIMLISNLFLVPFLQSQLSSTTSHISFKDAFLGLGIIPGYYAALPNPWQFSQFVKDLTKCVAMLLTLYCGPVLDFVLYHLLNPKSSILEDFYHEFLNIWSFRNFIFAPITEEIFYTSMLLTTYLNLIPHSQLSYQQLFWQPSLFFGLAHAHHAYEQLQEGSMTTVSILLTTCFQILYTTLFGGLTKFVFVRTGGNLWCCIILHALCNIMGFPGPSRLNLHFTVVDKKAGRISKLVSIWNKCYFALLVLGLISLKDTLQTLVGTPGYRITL
Env fusion inh – inhibitors of HIV Env-mediated cell fusion. HeLa-JRFL Env/CEM21 cell fusion, luciferase. inhibition, % at 12.3 µM. 1.1% of 360,000 active. AID 651610;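 active means mean replicate inhibition score of at least 50 and every replicate individually at or above 50; inconclusive means only one of the two criteria met; inactive means mean below 50 and not all replicates reaching 50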;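 further: 0% = plate neutral controls and 100% = maraviroc near 300 nM; one replicate is shown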
MT1-MMP act inh RFP – also measured in MT1-MMP act inh; calls as there; RFP signal change, %; measured here: RFP expression control read;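 0 = vehicle wells; hits needed this value within 50% of zero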
The depositor's hits bear a star; i = inactive; ? = inconclusive; . = not tested or not shown.

SMILES | CSC inhib | eIF4H FP inh | UUG fidelity | MT1-MMP act inh | MT1-MMP act inh RFP | PABP polyA inh | Rce1 inh | Env fusion inh
Cc1ccccc1C(=O)Nc1ccc(Cl)cn1 | -1 | 2 | -27 | -3 | 5 | 5 | i | -186
COc1ccccc1CNC(=O)c1cccc(NC(=O)c2ccccc2)c1 | 3 | -2 | . | -8 | -4 | -2 | i | 9
Cc1cc(NC(=O)CN2C(=O)NC(C)(CC(C)C)C2=O)no1 (stereo not given) | -22 | . | 7 | 2 | 4 | . | . | -32
COc1cccc(NC(=O)CNC(=O)c2ccc(C)o2)c1 | -12 | -7 | -2 | 2 | 3 | -4 | i | -13
Cc1ccc(-c2nnn(CCC(=O)Nc3ccc4c(c3)OCO4)n2)cc1 | 0 | 1 | -11 | -4 | 1 | -5 | i | -2
CCC(C)Sc1ccc([C@@H]2[C@@H]3C(=O)N(C)C(=O)[C@@H]3[C@]3(C(=O)OC)CCCCN23)cc1OC (stereo not given in full) | 14 | . | -7 | 1 | 1 | . | i | -3
O=[N+]([O-])c1ccc(N2CCN(Cc3ccccc3)CC2)nc1 | 4 | 0 | . | 3 | -1 | 11 | i | 22
CCCCCCCCOC(=O)C1=C(C)Nc2nnnn2C1c1cccs1 (stereo not given) | 102* | -4 | -10 | 2 | -9 | -2 | i | 26
CCc1ccc(NC(=O)c2cc(S(=O)(=O)N3CCc4ccccc43)cn2C)cc1 | 13 | -11 | -9 | -10 | -11 | -10 | i | -23
NS(=O)(=O)c1ccc(NC(=S)Nc2ccc(OCc3ccccc3)cc2)cc1 | 3 | 0 | . | 3 | 5 | -2 | i | -16
COCC(C)n1c(SCC(=O)NC(=O)Cc2ccccc2)nc2ccccc2c1=O (stereo not given) | . | . | -16 | -2 | -3 | . | . | 19
Cc1ccc(NC(=O)NC2CCCCC2)c(C)c1 | -9 | -2 | -9 | 5 | 4 | 25 | i | .
COCCCNc1nc2nonc2nc1NCCSC | -9 | 6 | -17 | 2 | -4 | -4 | i | 2
COc1ccccc1C(=O)Nc1ccc2c(c1)nc1n2CCSC1 | -4 | -4 | -15 | -6 | -1 | -14 | . | -118
O=C(CNc1cc(S(=O)(=O)N2CCOCC2)ccc1NCC1CCCO1)Nc1ccc(F)c(F)c1 (stereo not given) | . | 7 | -16 | -3 | 4 | 4 | i | -34
O=C1c2ccccc2S(=O)(=O)N1Cc1cccc(S(=O)(=O)N2CCOCC2)c1 | 7 | 2 | -3 | -1 | -1 | -7 | i | .
COc1ccccc1NC(=O)CC1C(=O)Nc2ccccc2N1C(=O)c1ccccc1 (stereo not given) | -2 | -10 | . | -2 | 4 | ? | i | -12
Cc1cc(NC(=O)CSc2nnc(C)n2-c2ccccc2C)no1 | . | -4 | . | 4 | 5 | 0 | i | -11
COc1ccc(S(=O)(=O)N2CCN(CC(=O)c3ccc(O)c(O)c3)CC2)cc1 | 23 | -4 | 9 | 2 | 2 | -4 | i | -5
CCOc1ccccc1-c1nc(CN(Cc2cnn(C)c2)C(C)C)c(C)o1 | -12 | 1 | . | -1 | 0 | 4 | i | 4
COc1ccc(Cl)cc1NC(=O)CCNC(=O)Cn1ccc2ccccc2c1=O | -6 | -1 | -21 | 2 | 0 | 0 | i | .
CN(CC(=O)Nc1c(F)cccc1F)Cc1cccs1 | -11 | 39 | -14 | 7 | 6 | 6 | i | 6
CN1CCN(C(=O)C2CC(=O)N(c3ccc(F)c(Cl)c3)C2)CC1 (stereo not given) | -7 | -10 | -18 | 1 | 5 | -5 | i | -8
CC(=O)c1ccc(NC(=O)c2ccc(C)c(Br)c2)cc1 | 13 | 7 | . | 4 | -2 | 14 | i | -98
CC1(C)C(=O)Nc2ccccc2N1C(=O)COC(=O)c1cccnc1Cl | 2 | . | 4 | -7 | -1 | . | . | 4

Profiles, quoted from the list:
Record of `CN(CC(=O)Nc1c(F)cccc1F)Cc1cccs1` = CSC inhib: -11; eIF4H FP inh: 39; UUG fidelity: -14; MT1-MMP act inh: 7; MT1-MMP act inh RFP: 6; PABP polyA inh: 6; Rce1 inh: i; Env fusion inh: 6
Record of `COc1ccc(Cl)cc1NC(=O)CCNC(=O)Cn1ccc2ccccc2c1=O` = CSC inhib: -6; eIF4H FP inh: -1; UUG fidelity: -21; MT1-MMP act inh: 2; MT1-MMP act inh RFP: 0; PABP polyA inh: 0; Rce1 inh: i; Env fusion inh: .

The listing continues.
SMILES | CSC inhib | eIF4H FP inh | UUG fidelity | MT1-MMP act inh | MT1-MMP act inh RFP | PABP polyA inh | Rce1 inh | Env fusion inh
COc1ccc(CCNS(=O)(=O)c2c(N)n(C)c(=O)n(C)c2=O)cc1OC | . | 7 | . | 1 | 3 | 7 | i | -1
Cc1ccc(NS(=O)(=O)c2cccc3nsnc23)cc1 | -8 | -4 | . | 2 | 2 | 10 | i | 12
CC(=O)c1c(C)[nH]c(C(=O)COC(=O)c2ccc3c(=O)n4c(nc3c2)CCC4)c1C | 7 | 2 | . | 3 | -5 | -2 | i | -5
O=S1(=O)CSCS(=O)(=O)C1 | . | . | -16 | 1 | 4 | . | . | -13
CCc1ccc(C(=O)NNC(=O)[C@H](C)NC(=O)c2ccco2)cc1 | 2 | . | 0 | 4 | 1 | . | . | -34
COc1cc(NC(=O)c2cc([N+](=O)[O-])ccc2Br)ccc1NC(=O)c1ccco1 | 17 | -9 | . | -6 | -9 | 4 | i | .
O=c1[nH]c(C2CCN(S(=O)(=O)c3ccccc3F)CC2)nc2c1nnn2Cc1ccc(OC(F)(F)F)cc1 | . | 15 | -12 | 2 | -2 | 9 | i | 0
Cc1ccc(CSc2nccc(-c3c(C)nc4ccccn34)n2)cc1 | 53 | 0 | -23 | -7 | -24 | 9 | i | 33
CCNc1cc(S(=O)(=O)C(F)(F)F)ccc1N | -3 | -9 | -22 | -7 | 0 | -10 | i | 3
Cc1ccc(S(=O)(=O)Oc2cccc([N+](=O)[O-])c2)cc1 | . | . | -5 | 1 | -4 | . | . | 13
CCc1ccc(NC(=O)Cn2nnc(C(=O)NCCc3ccc(OC)c(OC)c3)c2N)cc1 | -19 | -19 | -16 | 2 | 0 | 4 | i | -5
CC1(C)C=Cc2c(ccc3c2OC[C@@H](c2ccc(O)cc2O)C3)O1 | 90* | . | -7 | 8 | -3 | . | i | .
CCOc1cc(/C=C2/C(=O)ON=C2C)ccc1OCc1ccc(F)cc1 | 31 | -4 | -4 | -2 | -3 | 0 | i | .
CC(NC(=O)CCNC(=O)c1ccccc1Cl)c1ccc(-n2ccnc2)cc1 (stereo not given) | . | -6 | -13 | 1 | 4 | -11 | i | -3
CN(CCC#N)C(=O)c1ccc(CNS(=O)(=O)c2ccc(F)cc2)cc1 | . | 4 | . | -3 | -1 | -1 | i | .
COc1cc(C(=O)NNC(=O)CN2C(=O)NC3(CCCC3)C2=O)cc(OC)c1OC | -3 | . | -7 | -3 | 2 | . | . | .
CC(C)(C)OC(=O)N1CCC(C(=O)NNC(=O)c2ccc(Cl)cc2Cl)CC1 | 13 | . | -12 | -1 | 4 | . | i | -2
Cn1c(N)c(C(=O)COC(=O)CCc2ccccc2)c(=O)n(C)c1=O | 1 | 0 | -11 | 6 | 11 | -10 | i | 2
Cc1cccc(C2=NOC(=O)/C2=C\c2ccccc2F)c1 | . | . | -1 | 2 | 3 | . | . | 3
O=C(NCC1CCCO1)c1ccccc1OCc1ccc(F)cc1 (stereo not given) | -11 | . | -11 | 3 | 3 | . | i | 1
COc1ccc(S(=O)(=O)NC(C)C(=O)NCc2ccco2)cc1OC (stereo not given) | -17 | 5 | -15 | -1 | 2 | 15 | . | 1
C/C(=N\NC(=O)c1nc2ccccn2c1C)c1cc2ccccc2o1 | . | 14 | . | 4 | 0 | 4 | i | -16
CS(=O)(=O)N(CCc1ccccc1)CC(=O)NCC1CCCO1 (stereo not given) | 0 | 0 | . | 6 | -1 | 7 | i | .
O=C1C=CC(=O)N1Cc1ccccc1 | 31 | -6 | 16 | 2 | 2 | -2 | i | 8
O=C(CSc1ccc2nnc(-c3ccncc3)n2n1)NCc1ccco1 | -8 | -11 | -19 | -1 | 0 | 10 | i | -5

An excerpt from above in order of the UUG fidelity value, rising.
molecule | UUG fidelity
Cc1ccccc1C(=O)Nc1ccc(Cl)cn1 | -27
O=S1(=O)CSCS(=O)(=O)C1 | -16
CC1(C)C(=O)Nc2ccccc2N1C(=O)COC(=O)c1cccnc1Cl | 4

In a second layout: 4 of the compounds above.
CC1(C)C=Cc2c(ccc3c2OC[C@@H](c2ccc(O)cc2O)C3)O1
  CSC inhib: 90*
  eIF4H FP inh: .
  UUG fidelity: -7
  MT1-MMP act inh: 8
  MT1-MMP act inh RFP: -3
  PABP polyA inh: .
  Rce1 inh: i
  Env fusion inh: .
CCOc1cc(/C=C2/C(=O)ON=C2C)ccc1OCc1ccc(F)cc1
  CSC inhib: 31
  eIF4H FP inh: -4
  UUG fidelity: -4
  MT1-MMP act inh: -2
  MT1-MMP act inh RFP: -3
  PABP polyA inh: 0
  Rce1 inh: i
  Env fusion inh: .
Cn1c(N)c(C(=O)COC(=O)CCc2ccccc2)c(=O)n(C)c1=O
  CSC inhib: 1
  eIF4H FP inh: 0
  UUG fidelity: -11
  MT1-MMP act inh: 6
  MT1-MMP act inh RFP: 11
  PABP polyA inh: -10
  Rce1 inh: i
  Env fusion inh: 2
COc1ccc(S(=O)(=O)NC(C)C(=O)NCc2ccco2)cc1OC (stereo not given)
  CSC inhib: -17
  eIF4H FP inh: 5
  UUG fidelity: -15
  MT1-MMP act inh: -1
  MT1-MMP act inh RFP: 2
  PABP polyA inh: 15
  Rce1 inh: .
  Env fusion inh: 1

Additional compounds.
SMILES | CSC inhib | eIF4H FP inh | UUG fidelity | MT1-MMP act inh | MT1-MMP act inh RFP | PABP polyA inh | Rce1 inh | Env fusion inh
Cc1ccc(NC(=O)COC(=O)C2CC(=O)N(Cc3ccccc3)C2)cc1S(=O)(=O)N(C)C (stereo not given) | 3 | -1 | . | -3 | 0 | -12 | i | 0
COc1cc(C(=O)NCC(=O)OCC(=O)Nc2nnc(-c3ccccc3)o2)cc(OC)c1OC | -11 | . | -19 | 1 | 1 | . | i | -26
O=C(CCC(=O)N1CCN(c2cccc(Cl)c2)CC1)c1cccs1 | 45 | . | -2 | -7 | -7 | . | i | 3
CSCCCNC(=O)c1ccc(OC2CCN(C(=O)c3cccnc3)CC2)cc1 | -9 | 5 | -11 | 12 | 6 | -9 | i | 11
Cc1ccc(OCCCCN2CCC(C)CC2)c(Br)c1 | 63 | 6 | -17 | 3 | 7 | -2 | i | 18
O=C(c1ccc(NS(=O)(=O)c2ccc(F)cc2)cc1)N1CCC1 | 10 | . | . | 3 | 1 | . | i | 6
CCC(C)NC(=O)c1ccc(CS(=O)(=O)c2ccc(OC)cc2)o1 (stereo not given) | -3 | 9 | 5 | -1 | 4 | -1 | i | -12
COc1cc(C)nc(Oc2ccc(/C=N/O)cc2)n1 | . | -7 | -8 | 0 | 6 | -1 | i | .
O=C(O)c1ccc2c(c1)C(=O)N(c1ccc(Cl)cn1)C2=O | 3 | 1 | -5 | -1 | 0 | -7 | i | -4
O=C(NCc1cccnc1)c1nc(-c2ccccc2)n(-c2ccccc2)n1 | 14 | -1 | -12 | -3 | -1 | -2 | i | 14
Cc1ccc(SCCC(=O)OC(C)C(=O)Nc2ccccc2)cc1 (stereo not given) | 6 | . | -2 | 15 | -1 | . | i | .
Cn1ccnc1SCC(=O)NC1CCCC1 | . | 5 | -15 | 2 | 7 | 15 | i | 7
COC(=O)c1[nH]c2ccc(F)cc2c1NS(=O)(=O)c1ccc(F)c(C)c1 | 19 | 8 | . | -9 | -4 | 11 | i | -26
CCSC1(SCC)N=C(N)C2(C#N)C(c3ccc(OC)c(OC)c3OC)C12C#N (stereo not given) | -6 | 9 | -3 | 10 | 0 | 11 | i | .
